Screening data as filed in PubChem.
UCH37 DUB inh = inhibitors of human UCH37 deubiquitinase, primary screen, biochemical, Ub-AMC cleavage, fluorescence; Ubiquitin carboxyl-terminal hydrolase isozyme L5 (Homo sapiens), Q9Y5K5; purified proteasome/UCH37; inhibition, % (concentration not given with the values); hit rate 0.33% among 330,000;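 active = mean of two replicates above 20%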;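 also: 0% = compound-free wells with enzyme and 100% = wells lacking proteasome; stock transfer was 100 nL into about 20 µL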
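system = Proteasome-associated human UCH37 deubiquitinase | amount = 0.15 nM proteasome as dispensed | medium = pH 7.4 Tris-HCl (50 mM) with ovalbumin, ATP-MgCl2, DTT | incubation = 30 min preincubation with enzyme, 25 min cleavage at room temperature | detection = AMC fluorescence 355/460 nm | read-out basis = percent inhibition | controls = no-proteasome and no-compound wells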
Ecoli growth = E. coli growth inhibition, primary screen, OD600 | Escherichia coli growth, 23 h; stronger effect = lower value | OD600 absorbance (concentration not given with the values) | hit rate 0.21% among 330,000;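 active = OD600 absorbance below the run mean of sample wells minus 3.6 SD, in any replicate, cut at about 0.56 in these data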;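 also: stock transfer was 300 nL into about 60 µL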
FGF22 binding = binders of human FGF22 protein, primary screen, FGF22 synaptogenesis inhibitor project, biophysical, thermal shift, single point; Fibroblast growth factor 22 (Homo sapiens), Q9HCT0; hit rate 1.5% among 340,000; AID 651658, 2012; calls only at 9.99 µM; recombinant FGF22 thermal shift, SYPRO orange fluorescence; percent of sucrose octasulfate shift, DMSO zero;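 active = melting point raised past a set limit in the mean and every replicate; three in four hits are not shown here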
ALR inh = inhibitors of human ALR sulfhydryl oxidase, primary screen, biochemical, H2O2 detection, HRP-luminol luminescence, single point | FAD-linked sulfhydryl oxidase ALR (Homo sapiens), P55789 | purified ALR, DTT oxidation | inhibition, % (no concentration beside the values) | hit rate 3.8% among 290,000 | AID 485317, 2010;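 active = mean and each replicate at 75% or more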;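 also: stock transfer was 7.5 nL into about 7.5 µL; 0% = neutral wells and 100% = wells with inactivated enzyme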
Target sequence (P55789 whole entry, looked up): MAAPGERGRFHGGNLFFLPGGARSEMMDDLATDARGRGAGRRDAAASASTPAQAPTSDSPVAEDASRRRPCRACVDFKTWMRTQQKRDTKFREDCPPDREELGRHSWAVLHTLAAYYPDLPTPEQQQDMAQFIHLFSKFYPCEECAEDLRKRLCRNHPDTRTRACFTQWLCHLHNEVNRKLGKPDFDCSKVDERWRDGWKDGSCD
HNF4A DNA FP = change in binding of human HNF4A to DNA, primary screen, biochemical, fluorescence polarization, FITC-DNA | 1 h | Hepatocyte nuclear factor 4-alpha (Homo sapiens), P41235 | AID 1224865, 2016 | hit rate 0.3% among 360,000 | activity change, % at 10 µM; in the data active = activity change above about 30%, passing the limit was not always enough;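 also: controls were the assay level and a saturating level of protein; the project sought stronger binding though the title names inhibitors; some compounds called inactive have numbers as strong as hits; positive values seem to mean higher polarization but the record does not say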
Target sequence (P41235 whole entry, looked up): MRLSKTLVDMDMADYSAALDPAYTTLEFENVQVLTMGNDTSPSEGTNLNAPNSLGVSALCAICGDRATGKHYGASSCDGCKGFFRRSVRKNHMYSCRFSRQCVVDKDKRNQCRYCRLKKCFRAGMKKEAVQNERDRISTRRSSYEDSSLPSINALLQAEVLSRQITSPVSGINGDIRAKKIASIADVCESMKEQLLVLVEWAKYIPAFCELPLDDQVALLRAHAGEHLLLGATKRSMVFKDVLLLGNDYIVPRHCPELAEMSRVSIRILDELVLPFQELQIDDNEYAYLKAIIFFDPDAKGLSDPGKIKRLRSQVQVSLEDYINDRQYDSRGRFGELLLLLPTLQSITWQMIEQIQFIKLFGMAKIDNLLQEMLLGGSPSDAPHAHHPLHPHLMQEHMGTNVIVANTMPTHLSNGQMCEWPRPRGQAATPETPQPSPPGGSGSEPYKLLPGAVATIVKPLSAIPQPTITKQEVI
LANA-H2A inh = blockers of LANA interaction with H2A/H2B – biochemical, FP readout, HTS, primary screen; Protein LANA1 (Human herpesvirus 8 type P (isolate GK18)), Q9QR71; cell-free LANA-H2A/H2B peptide, fluorescence polarization; hit rate 0.6% among 320,000; inhibition, % (test concentration not listed); in the data active = inhibition mostly above about 10%, no sharp cut-off; inactive = mostly below about 6.7%;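 also: stock transfer was 7.5 nL into about 10 µL; 0% = median of vehicle wells and 100% = median of positive control wells; one replicate is shown; the record names a cut of 25% in any replicate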
B2AR ag = beta2AR agonists driving receptor internalization, primary screen, cell-based, FAP fluorogen, flow cytometry | Beta-2 adrenergic receptor (Homo sapiens), P07550 | Am2.2-beta2AR cells; reference of the scale not given here | response, % (test concentration not listed) | hit rate 0.43% among 340,000 | AID 504454, 2011;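 active = response above a set limit, near 3 SD of response in nonfluorescent compounds, cut at about 42% in these data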;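 also: stock transfer was 100 nL into about 11 µL; a reference agonist was the positive control; negative values mostly stem from fluorescent compounds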
Target sequence (P07550 whole entry, looked up): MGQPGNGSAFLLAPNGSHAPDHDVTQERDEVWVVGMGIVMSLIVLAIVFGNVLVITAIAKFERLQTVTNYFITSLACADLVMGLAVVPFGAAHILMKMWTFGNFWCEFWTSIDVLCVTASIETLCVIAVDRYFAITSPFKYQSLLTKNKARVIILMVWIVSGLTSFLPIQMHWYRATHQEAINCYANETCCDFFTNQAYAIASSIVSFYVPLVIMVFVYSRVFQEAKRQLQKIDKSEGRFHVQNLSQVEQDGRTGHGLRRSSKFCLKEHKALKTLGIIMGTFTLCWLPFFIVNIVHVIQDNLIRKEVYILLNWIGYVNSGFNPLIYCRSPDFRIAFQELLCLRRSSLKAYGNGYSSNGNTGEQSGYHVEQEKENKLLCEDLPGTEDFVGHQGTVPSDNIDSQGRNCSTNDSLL
* = called active by the depositor; i = inactive; / = not tested or not shown; + = active, no number. The list is partial, so the mix of outcomes need not match the whole.

SMILES	UCH37 DUB inh	Ecoli growth	FGF22 binding	ALR inh	HNF4A DNA FP	LANA-H2A inh	B2AR ag
Cc1nn(C)c(Oc2cccc(Cl)c2)c1C(=O)O	0.3	0.69	/	/	1.3	2.4	-2
CC1CCN(C(=O)CSCC(=O)O)CC1	-0.3	0.72	i	0	-4.0	2.8	-2
Cn1c(=O)c2c(O)c(C=Nc3ccc(F)cc3)c(=O)n(C)c2n(C)c1=O	2.1	0.69	/	/	/	1.7	/
CCOC(=O)CSc1n[nH]c(-c2cccnc2)n1	1.8	0.73	/	0	-1.1	-0.6	14
Cc1ccc(SCC(=O)NCCSC(C)(C)C)cc1	4.8	0.76	/	2	0.2	-2.5	1
CSCC[C@H](NC(=O)[C@@H]1Cc2ccccc2CN1)C(=O)Nc1ccc2c(c1)OCCO2	3.0	0.67	i	-1	-2.3	-11	-2
N#Cc1c(-c2ccco2)ccn(Cc2ccc(F)cc2)c1=O	-86	0.66	i	1	5.9	-0.3	-6
c1ccc(CN2CCN(c3ncnc4nc[nH]c34)CC2)cc1	5.6	0.66	i	-1	2.2	-2.1	5
COc1ccc(CCNC(=S)Nc2cccc(C)c2C)cc1	3.3	0.75	/	7	0.3	3.9	2
O=C(OCC(=O)N1CCCCCC1)c1ccccc1Br	0.7	0.7	i	-5	-3.5	7.6	5
CCC(C)(C(=O)NC1CCCCC1)N(C(=O)c1cnccn1)c1c(C)n(C)n(-c2ccccc2)c1=O (centres undefined)	3.6	0.69	/	-2	-0.6	2.5	-5
Cc1cc(C)c2[nH]c(C(=O)N3CCC(n4nccc4NC(=O)C4CC4)CC3)c(C)c2c1	3.3	0.7	i	8	0.3	1.0	-3
COc1ccc(NC(=O)c2cccnc2Nc2ccc(OC)cc2)cc1	-3.4	0.73	/	-2	1.4	0.9	-5
CCOC(=O)c1[nH]c2cc3c(cc2c1NC(=O)CN1CCC(C)CC1)OCO3	-69	0.74	/	26	0.9	-2.3	-5
CC(C)(C)n1nnnc1CN1CCC(NC(=O)NC2CCCCC2)CC1	2.0	0.73	/	1	2.4	4.4	0
CCOC(=O)c1ccc(NC(=O)Cn2nnc(-c3ccccc3C)n2)cc1	0.4	0.7	/	1	0.8	-6.9	-6
COc1ccc(S(=O)(=O)Nc2cccc3c2O[C@H](CN(C)C(=O)NC(C)C)[C@@H](C)CN([C@H](C)CO)C3=O)cc1	2.7	/	i	-7	0.7	-5.9	2
CCN(CC)S(=O)(=O)c1ccc(C(=O)N2CCN=C2SCc2cccnc2)cc1	2.2	0.73	/	99*	-0.6	26*	-1
O=C1C=C(c2ccc(-c3ccccc3)c(F)c2)C[C@@H](c2ccc(Cl)cc2)C1	-0.5	/	i	4	-0.8	3.1	11
COc1cc(O)c(C(CCN2CCCC2)c2cc(OC)c(OC)c(OC)c2)c(OC)c1 (centres undefined)	5.6	0.63	i	/	1.3	4.9	0
O=C(NCCc1ccccc1)C1=CCN(S(=O)(=O)c2ccccc2)CC1	0.0	0.66	i	-5	4.0	-7.3	8
CC(C)(C)NC(=O)CSc1ncccc1-c1nc2ccccc2[nH]1	-22	0.7	i	-8	-1.3	3.5	-14
Cc1cc(=O)n2[nH]c(N)c(N=Nc3ccccc3F)c2n1	14	0.66	i	52	2.0	-2.6	4
CCc1cc2c(N[C@@H](Cc3c[nH]c4ccccc34)C(=O)O)ncnc2s1	3.4	0.71	/	0	-1.1	-5.8	0
Cc1n[nH]c(C)c1S(=O)(=O)N1CCN(C2CCCCC2)CC1	5.8	0.76	/	-4	1.8	-0.8	6
SMILES	UCH37 DUB inh	Ecoli growth	FGF22 binding	ALR inh	HNF4A DNA FP	LANA-H2A inh	B2AR ag
C[C@H](CO)N1C[C@H](C)[C@@H](CN(C)Cc2ccncc2)Oc2c(NC(=O)Cc3ccccc3)cccc2C1=O	2.0	/	i	-2	0.4	-2.2	-1
CCCC1C(C(=O)OCC)=C(C)NC(C)=C1C(=O)OCC	-13	0.74	/	99*	-2.2	-6.8	5
COc1ccc(C2/C=C\CN(Cc3ccc(N(C)C)cc3)CC(=O)N2Cc2ccc(F)cc2)cc1 (centres undefined)	1.3	/	i	1	4.3	-1.4	97*
COC(=O)NCCOc1nc(N(C)C)nc(N(C)C)n1	2.6	0.74	/	0	0.4	0.5	1
O=C(/C=C/c1cccs1)N1CCC2(CC1)Oc1ccc(Cl)cc1C(=O)C21CC(c2cccnc2)=NO1 (centres undefined)	-0.1	/	i	/	-4.3	2.0	-3
Cc1cccc(C(=O)Nc2nnc(S(=O)(=O)N3CCOCC3)s2)c1	4.2	0.71	i	26	-0.8	-0.5	0
CCCCNC(=O)c1nn2c(C(F)(F)F)cc(-c3ccccc3)nc2c1Br	-3.7	0.68	i	-2	2.2	-4.4	-12
Cc1ccc(CSCCC(=O)NCCc2ccc(Cl)cc2)cc1	4.6	0.75	/	/	0.4	-4.9	-2
COc1ccc(NC(=O)C(NC(=O)Cc2cccs2)c2ccc(C)cc2)cc1 (centres undefined)	2.9	0.7	i	/	-0.1	/	1
CN(C)/C=c1\sc2c(C#N)cc(C(=O)c3ccc(Br)cc3)n2c1=O	/	/	/	-9	45	-0.2	-23
Cc1cc(OC2CCCCC2)nc(-c2ccccc2O)n1	-0.2	0.67	/	99*	-1.7	-4.4	2
O=C1C(c2ccccc2)c2ccccc2N1Cc1ccccc1 (centres undefined)	2.6	0.71	/	/	-1.9	/	28
Cc1ccc(NC2=CC(=O)CC(C)(C)C2)cc1Cl	-0.2	0.63	i	-2	6.0	0.1	-3
Cc1cc(NC(=O)COc2ccc(Cl)cc2Cl)n(-c2ccccc2)n1	-5.6	0.75	/	-5	-2.0	1.8	-14
CN(Cc1ccccc1)S(=O)(=O)c1ccc(Cl)c(C(=O)N2CCC2)c1	-0.3	0.61	i	-11	4.3	-6.7	1
CN(C)S(=O)(=O)c1cccc(NC(=S)N(CCC#N)Cc2cccnc2)c1	4.1	0.72	i	-16	-1.8	-0.4	-1
O=C(NCCc1ccc(Cl)cc1)C1CCN(c2ncccn2)CC1	-6.3	0.68	i	-3	2.5	-1.1	-9
FC(F)Sc1ccc(Nc2ncnc3nc[nH]c23)cc1	0.9	0.69	/	5	0.0	4.3	-1
N#CC1=C(N)Oc2c(oc(CO)cc2=O)C12C(=O)Nc1ccc(Cl)cc12 (centres undefined)	2.7	0.7	/	-3	2.6	1.5	7
CCn1c(C2CCN(Cc3ccccc3)CC2)n[nH]c1=S	3.8	0.69	i	/	0.1	/	4
Cc1nc2c3ccccc3nc(NNC(=O)CCC(=O)N3CCCC(C)C3)n2n1 (centres undefined)	1.8	0.68	i	4	-1.4	-2.1	1
Cc1ccc(S(=O)(=O)NNC(=O)Nc2cccc3ccccc23)cc1	/	/	i	-18	-1.8	5.0	-1
O=c1[nH]c(Nc2ccccc2)cc2cc(Br)ccc12	44*	0.69	i	-1	0.8	-0.8	-8
CC1CCN(C(=O)COC(=O)CNC(=O)c2ccccc2F)CC1	2.4	0.69	i	/	-2.1	/	-3
O=C(CCN1CCCCC1)c1ccccc1	1.9	0.66	i	47	-2.3	0.0	33

Some of these compounds in order of count of non-hydrogen atoms, low to high:
SMILES	UCH37 DUB inh	Ecoli growth	FGF22 binding	ALR inh	HNF4A DNA FP	LANA-H2A inh	B2AR ag
COC(=O)NCCOc1nc(N(C)C)nc(N(C)C)n1	2.6	0.74	/	0	0.4	0.5	1
CCn1c(C2CCN(Cc3ccccc3)CC2)n[nH]c1=S	3.8	0.69	i	/	0.1	/	4
CN(Cc1ccccc1)S(=O)(=O)c1ccc(Cl)c(C(=O)N2CCC2)c1	-0.3	0.61	i	-11	4.3	-6.7	1

(listing goes on)
SMILES	UCH37 DUB inh	Ecoli growth	FGF22 binding	ALR inh	HNF4A DNA FP	LANA-H2A inh	B2AR ag
CC(Sc1nc2ncc(Cl)cc2[nH]1)C(=O)NC1(C#N)CCCCC1 (centres undefined)	2.0	0.68	i	6	-1.0	0.3	3
CCc1ccc(-c2nn[nH]n2)cc1	4.1	0.66	/	5	-3.7	-4.0	-3
c1ccc2c(c1)ncn2CCOCCOCCn1cnc2ccccc21	0.9	0.73	/	-6	-2.9	5.7	0
CCCCN(C)CCCN1C(=O)C2C(C(=O)Nc3cccc(OC)c3)C3C=CC2(O3)C1C(=O)NC1CCCCC1C (centres undefined)	-0.3	0.69	i	0	0.3	-1.0	2
COc1ccc(CN2CCc3ccccc3C2)c(OC)c1OC	2.4	0.71	/	0	3.3	-4.6	0
Cc1cc(=O)[nH]c(N/N=C/c2ccc(N(C)C)cc2)n1	/	/	i	99*	-2.4	7.3	7
COc1ccc(S(=O)(=O)NCc2ccncc2)cc1NC(=O)c1ccc(Cl)cc1	2.1	0.7	/	-8	-1.3	3.9	2
COc1ccccc1NC(=O)c1cc(-c2cc(OC)c(OC)c(OC)c2)nc2ccccc12	-14	0.71	i	-1	0.5	2.3	29
Oc1ccc(-c2csc(Nc3ccccn3)n2)c(O)c1	-0.6	0.62	+	93*	-0.7	-8.5	9
O=C(CC(C(=O)NCc1ccccc1)c1nc2ccccc2c(=O)[nH]1)NCc1ccccc1 (centres undefined)	4.1	0.63	i	/	-1.8	4.3	3
CN(C(=O)CSc1ccc2c(c1)OCCO2)c1ccccc1	3.9	0.69	i	38	-2.4	3.8	-5
Cc1cc(C)c(S(=O)(=O)Nc2ccc(Cl)cn2)c(C)c1	0.2	0.69	i	-2	7.2	1.2	1
CC(=O)NC(Cc1ccccc1)C(=O)NC1CCN(C(=O)c2ccc([N+](=O)[O-])cc2)CC1 (centres undefined)	0.2	0.73	/	-4	-0.6	-0.5	-1
COc1cccc(N(CC(=O)Nc2ccc3c(c2)OCO3)S(=O)(=O)c2ccccc2)c1	2.3	0.77	/	/	-4.0	0.2	-3
COc1ccccc1OCC(O)CN1CCOCC1 (centres undefined)	1.0	0.62	i	-14	-3.7	-1.4	-8
Cc1nc2ccc(S(=O)(=O)NC(C(=O)N3CCn4c3nc3ccccc34)C(C)C)cc2s1 (centres undefined)	4.2	0.74	i	-22	2.6	-0.9	-16
COc1ccccc1C(=O)Nc1sc(C(=O)N2CCCC2)c(C)c1C#N	0.9	0.67	i	-3	0.8	-2.5	5
Cc1noc(/C=C/c2ccco2)c1S(=O)(=O)N1CCC(C(=O)N(C)Cc2ccccc2)CC1	5.5	0.73	/	7	-1.7	-3.3	-22
Cc1sc2ncn(CC(=O)NCCCC(=O)NCc3ccc(F)cc3)c(=O)c2c1C	0.4	0.64	i	-11	3.8	0.3	5
O=C(CSc1nnc(CNC(=O)C23CC4CC(CC(C4)C2)C3)n1-c1ccccc1)Nc1ccc(F)cc1	3.2	0.73	i	-6	-3.5	1.3	-4
COc1cc2c(cc1OC)C1(Nc3c-2c(C)nn3-c2ccccc2)C(=O)Nc2ccccc21 (centres undefined)	1.4	0.78	/	-27	0.5	-2.1	-43
FC(F)(F)c1cc(-c2ccccc2)nc(N2CCCCC2)n1	-24	0.77	/	/	0.4	-2.8	-1
O=C(Nc1ccccc1C(=O)NCCc1ccccc1)c1ccco1	0.5	0.78	/	5	2.8	-0.2	-5
Cc1ccc(CNC(=O)CCc2nc3ccccc3c(=O)[nH]2)cc1	4.5	0.7	/	-9	-1.2	4.5	-8
Cc1cccc2cc(CN(Cc3cccs3)C(=S)NCC3CCCO3)c(=O)[nH]c12 (centres undefined)	-0.8	0.71	/	22	-0.3	4.9	-1
O=C(NCCN1CCNC1=O)C1CCC(=O)N(Cc2ccccc2F)C1 (centres undefined)	0.7	0.72	i	-5	-0.8	5.2	-1
